Source: PubChem
D2 potentiator = human D2 receptor positive allosteric modulation; P14416; DiscoveRx D2 beta-arrestin cells, luminescence, 90 min; 100% = 57 uM dopamine signal; potentiation, % (no concentration beside the values); 360,000 compounds, 0.23% hits; active = potentiation of 50% or more; inconclusive = 30% to 50%; inactive = 30% or less;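 also: compound concentration not given in the record; tested on top of an EC20 dose of dopamine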
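PathHunter D2 cells, attached overnight at 37 deg C, received compound in DMSO plus dopamine at EC20 (50 nM final) for 90 min at 37 deg C. Beta-arrestin recruitment was read as luminescence after 1 h with detection reagent at ambient temperature.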
D2 agonist = human D2 receptor agonism in beta-arrestin assay | activation, % (no concentration beside the values) | AID 624465 | 360,000 compounds, 0.084% hits | DiscoveRx PathHunter D2 beta-arrestin, luminescence, 90 min; 100% = 57 uM dopamine signal; in the data active = activation above about 40%; inconclusive = about 15% to 40%; inactive = below about 15%; also: compound concentration not given in the record; the text of the record calls up to 30% inactive
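DiscoveRx PathHunter D2 beta-arrestin cells (2,100/well) attached overnight, then compound-stimulated 90 min at 37 C in HBSS/10 mM HEPES/0.1% Tween-20 buffer; beta-galactosidase complementation read by luminescence after 1 h at ambient temperature. Dopamine 57 uM final (EC100) as control.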
CtBP-E1A inh = inhibitors of CtBP/E1A interaction. AID 651724. activity change, % (test concentration not listed). AlphaScreen GST-E1A/His-CtBP binding, 1536-well; stronger effect = lower value; control for the full effect not named in the record. 340,000 compounds, 0.49% hits; in the data active means activity change below about -65%; inconclusive means about -30% to -65%; inactive means above about -30%; also: % is scaled to controls: 0 for no effect and ±100 for the full control effect
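Protein mix (5X: 125 nM each GST-E1A, His-CtBP) was incubated with pinned compound 2 h at 37 deg C in dark, in 50 mM Tris pH 8.0 buffer with 300 mM NaCl. Glutathione donor and nickel acceptor beads followed; AlphaScreen signal read after 1 h.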
PINK1 expr mod = PINK1 expression modulation; PINK1 immunofluorescence, high-content cytometry, 24 h; Potency, µM (top dose mostly 76.6 µM), for inactives: top-dose activation (PINK1 increase), usual class: activators; 410,000 compounds, 0.2% hits; active = well fitted activation curve with a large enough effect; inconclusive = small, poorly fitted or top-dose-only effect; inactive = flat fitted curve, though single readings scatter; cell line not stated here;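 also: potency is read from the fitted curve at half-maximal effect; % of control where 0% means no effect; nearly all actives have a fitted effect of over 65% in size; a mitochondrial uncoupler was the plate control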
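Fluorescence from anti-PINK1 antibody, together with nuclear and cell stains, was scanned on a laser-scanning cytometer. Before staining, stable-line cells were incubated 24 hours with compounds at 5 concentrations; primary antibody 12 h at 10 degrees C.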
Six1-Eya2 inh = blocks human Six1 binding to Eya2 | Q15475+O00167 | AID 651725 | AlphaScreen GST-Six1/His-Eya2 binding, biochemical; stronger effect = lower value; control for the full effect not named in the record | 360,000 compounds, 0.56% hits | activity change, % (no concentration beside the values); in the data active = activity change below about -65%; inconclusive = about -30% to -65%; inactive = above about -30%; also: % is scaled to controls: 0 for no effect and ±100 for the full control effect
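Compounds are tested against tagged Six1 and Eya2 proteins bridged by glutathione donor and nickel acceptor beads; after a one-hour incubation at 37 °C without light, AlphaScreen emission is recorded.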
TRPV1 PAM = potentiators of human vanilloid receptor 1 (TRPV1); Q8NER1; TRPV1-expressing cells, Fluo-8 calcium influx, capsaicin EC20 potentiation; host cell line not named in the record; control for the full effect not named in the record; potentiation, % at 8.33 µM; 320,000 compounds, 0.02% hits; active means potentiation above 80%; inconclusive means 30% to 80%; inactive means below 30%; also: 0% is about no effect
Target sequence (Q8NER1 whole entry, looked up): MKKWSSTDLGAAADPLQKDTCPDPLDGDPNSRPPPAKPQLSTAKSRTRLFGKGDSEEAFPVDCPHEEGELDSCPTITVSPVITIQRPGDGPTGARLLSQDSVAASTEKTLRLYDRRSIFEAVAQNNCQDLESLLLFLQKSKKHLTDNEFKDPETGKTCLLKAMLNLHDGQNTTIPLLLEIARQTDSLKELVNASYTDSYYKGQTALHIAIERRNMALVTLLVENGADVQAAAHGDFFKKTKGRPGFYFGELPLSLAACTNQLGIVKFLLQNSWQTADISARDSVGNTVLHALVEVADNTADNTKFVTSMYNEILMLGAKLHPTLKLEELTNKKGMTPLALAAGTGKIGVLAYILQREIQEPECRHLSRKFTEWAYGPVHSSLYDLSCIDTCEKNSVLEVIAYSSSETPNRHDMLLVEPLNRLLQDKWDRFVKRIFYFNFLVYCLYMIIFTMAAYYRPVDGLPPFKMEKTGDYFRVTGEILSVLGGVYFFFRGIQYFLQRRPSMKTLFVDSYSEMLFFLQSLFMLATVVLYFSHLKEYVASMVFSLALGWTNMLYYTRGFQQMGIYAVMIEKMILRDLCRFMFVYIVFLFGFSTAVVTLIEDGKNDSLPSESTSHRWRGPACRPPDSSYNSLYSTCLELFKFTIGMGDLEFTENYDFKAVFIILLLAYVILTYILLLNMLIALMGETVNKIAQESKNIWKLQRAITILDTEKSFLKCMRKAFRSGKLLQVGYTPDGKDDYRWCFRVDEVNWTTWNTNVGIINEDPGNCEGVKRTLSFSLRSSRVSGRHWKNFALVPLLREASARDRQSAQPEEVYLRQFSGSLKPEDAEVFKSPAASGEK
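Cells expressing TRPV1 were dye-loaded with Fluo-8 and read kinetically: 10 s baseline, 3 min after compound (agonist portion), then 2 min after EC20 capsaicin (allosteric enhancer portion). Calcium-bound dye fluorescence at 480/520 nm.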
Sfp PPTase inh = Sfp phosphopantetheinyl transferase inhibition. 310,000 compounds, 3.5% hits. Biochemical Sfp PPTase activity, qHTS. Potency, µM, for inactives: max response, negative = inhibition, actives largely listed as inhibitors. Q9F4F7. AID 1490; active = well fitted inhibition curve with a large enough effect; inconclusive = small, poorly fitted or top-dose-only effect, or another doubt; inactive = no such curve, though single readings can be large or run the other way;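 also: the enzyme is Sfp with the accession as filed and its product quenches rhodamine fluorescence; potency is read from the fitted curve at half-maximal effect; 0% = enzyme reaction without inhibitor and -100% = no enzyme wells; top concentration of the series not given in the record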
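Reaction rates are the 30-min fluorescence difference (ex 525, em 598 nm) in wells containing 15 nM Sfp, 5 uM rhodamine-CoA and 12.5 uM BHQ-2-YbbR at pH 7.6 with 10 mM MgCl2.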
Active calls of the source: *; ? = inconclusive; / = no result given; [ ] = remark or other dose.

SMILES	D2 potentiator	D2 agonist	CtBP-E1A inh	PINK1 expr mod	Six1-Eya2 inh	TRPV1 PAM	Sfp PPTase inh
CCCC1S/C(=N/N=C/c2ccc(OC)cc2)N(Cc2ccc(OC)cc2)C1=O (stereo unspecified)	8	-0.1	9	-2.1%	1	18	6%
O=[N+]([O-])c1ccc(OCc2cccc(COc3ccc([N+](=O)[O-])cc3)n2)cc1	5	1.3	-4	11%	1	-30	?
CC1=C(C(=O)N2CCCCCC2)CC(CC(=O)NCCc2ccccn2)C(=O)N1Cc1ccc(C(C)(C)C)cc1 (stereo unspecified)	/	/	4	-0.9%	2	/	/
COc1ccc(C2=NOC(CNC(=O)c3ccccc3Br)C2)c(OC)c1 (stereo unspecified)	7	0.0	/	-0.6%	8	9	22%
O=C1NC(=Nc2ccccc2Cl)S/C1=C\c1cc([N+](=O)[O-])ccc1O	-10	-8.6	14	2.4%	-28	21	?
CCn1c(NC(=O)c2ccccc2F)c(-c2cccs2)c(=O)c2ccccc21	-5	-2.6	-1	0.9%	0	9	3%
Cc1noc(C)c1CSc1nnc2sc3ccccc3n12	-21	-1.2	3	2.3%	-1	15	-2%
S=C(NCc1ccccc1)Nc1ccc(Cl)cc1	4	?	6	11%	-5	-10	6%
Cc1nn2cc(-c3ccc(-c4ccccc4)cc3)nc2s1	2	4.7	4	0.8%	8	11	5%
CCOc1cccc(NC(=O)CSc2nc(C)c3c(c2C#N)CCCC3)c1	-4	-2.7	2	2.1%[38.3 µM]	1	-13	13%
CCOC(=O)C1CCCN(C2CC(=O)N(c3cccc(C)c3)C2=O)C1 (stereo unspecified)	-4	-2.9	-19	14%[38.3 µM]	10	2	-22%
COC(=O)c1ccc(NC(=O)CSc2nc3[nH]ncc3c(=O)[nH]2)cc1	-8	-4.2	-2	0.6%	-12	-7	/
O=C1CCCc2ccccc2N1Cc1c(Cl)cccc1Cl	6	2.9	3	-0.6%	15	/	?
CNc1c([N+](=O)[O-])cnn1-c1ccc(C)cc1	-12	2.3	5	-3.5%	-3	?	-8%
CC1=NN(Cc2ccccc2)C(=O)/C1=C\c1ccc(N(C)C)cc1	0	-2.4	-8	-1.2%	8	-9	5%
CCOc1ccccc1Nc1nnc(Cc2ccccc2Cl)c(=O)[nH]1	-4	-0.5	-2	1.1%	-1	-3	3%
Cc1ccc(NC(=O)COC(=O)CCc2ccccc2)cc1S(=O)(=O)N1CCOCC1	-8	-3.2	/	3.1%	-3	/	/
Cc1cccc(NC(=O)CCN2CCC(C(N)=O)CC2)c1	-20	4.9	/	-0.5%	22	0	5%
Nc1ccc2nc(SCc3cccc(F)c3)sc2c1	5	2.8	2	13%	-14	?	-19%
O=C1C=C(c2ccccc2)C[C@H](c2cccs2)[C@H]1n1nnc([N+](=O)[O-])n1	58*	13	-11	0.9%	-25	-1	-2%
CC1CCc2nc(NC(=O)CSc3nc4ccccc4o3)sc2C1 (stereo unspecified)	16	0.1	-3	11%	0	2	7%
Cc1cc[n+](CC(=O)c2ccc(NC(=O)c3ccccc3)cc2)c2ccccc12	-11	4.9	-4	12%	-7	-1	-6%
CCC(=O)Nc1ccc(C(=O)CSc2nnc(-c3ccc(O)cc3)n2CC2CCCO2)cc1OC (stereo unspecified)	2	-0.3	-3	0.7%[38.3 µM]	-2	15	-18%
COc1cccc(/C=N/NC(=O)c2oc3nc(-c4ccccc4)cc(-c4ccco4)c3c2N)c1	6	1.6	-12	0.6%	-4	2	-13%

A section of the results above, for reference:
SMILES	D2 potentiator	D2 agonist	CtBP-E1A inh	PINK1 expr mod	Six1-Eya2 inh	TRPV1 PAM	Sfp PPTase inh
CNc1c([N+](=O)[O-])cnn1-c1ccc(C)cc1	-12	2.3	5	-3.5%	-3	?	-8%
CC1=NN(Cc2ccccc2)C(=O)/C1=C\c1ccc(N(C)C)cc1	0	-2.4	-8	-1.2%	8	-9	5%
CCOc1ccccc1Nc1nnc(Cc2ccccc2Cl)c(=O)[nH]1	-4	-0.5	-2	1.1%	-1	-3	3%

Going on with the list:
SMILES	D2 potentiator	D2 agonist	CtBP-E1A inh	PINK1 expr mod	Six1-Eya2 inh	TRPV1 PAM	Sfp PPTase inh
COc1ccc(CCNC(=O)c2cc(S(=O)(=O)N3CCCCCC3)ccc2OC)cc1OC	-3	-2.9	-5	1.5%	-13	2	/
CC(C)CN1C(=O)c2ccccc2C1(O)Cc1ccccc1 (stereo unspecified)	-3	-1.2	2	0.1%	5	-2	?
Cc1c(Cl)cccc1NC(=S)N1CCN(C(=O)C2CCCO2)CC1 (stereo unspecified)	5	1.8	8	-2.2%	1	-6	11%
O=C(NC1CCCC1)C(c1ccncc1)N(C(=O)c1csnn1)c1ccc(Cl)cc1 (stereo unspecified)	-12	-1.5	19	4.2%	4	3	0%
CCOC(=O)N1CCN(C(=O)c2ccc3[nH]c(C)c(C)c3c2)CC1	3	3.7	3	3.0%	-2	/	/
CCCS(=O)(=O)NCCc1cc2cc(C)c(C)cc2[nH]c1=O	16	-2.6	-3	0.1%	8	2	18%
Cc1ccc(S(=O)(=O)N(C)c2ccccc2C(=O)Nc2c(F)cccc2F)cc1	-12	-4.1	4	0.4%	3	-3	10%
O=C(NCC(c1ccco1)N1CCCC1)c1cc2cc(Cl)ccc2o1 (stereo unspecified)	-29	-2.7	-16	-1.0%	-4	?	/
NC(=NC1CCCCC1)c1ccc([N+](=O)[O-])cc1	-8	-0.6	2	-0.5%	0	2	1%
COc1ccc(NC(=O)C2Cc3c(-c4cccc(C(N)=O)c4)ccnc3O2)cc1 (stereo unspecified)	2	-4.7	-5	9.8%	-6	/	/
Cc1cccc(N2CCN(Cc3cc(=O)n4ccsc4n3)CC2)c1C	-7	-2.6	1	2.6%	-3	2	4%
O=C(Nc1ccccc1C(=O)N/N=C/c1ccco1)c1ccc(Cl)cc1	-7	-5.9	/	3.3%	-1	-13	-13%
Cc1ccc(-n2nc3c(=O)n(C(C)C(=O)NCc4ccccc4Cl)nc(C)c3c2C)cc1 (stereo unspecified)	7	4.8	?	-1.2%	-1	3	9%
S=C(NCCCN1CCN(CCCNC(=S)NC2CCCCC2)CC1)NC1CCCCC1	-14	-4.1	-4	5.2%	-12	/	/
C/C(CC(=O)Nc1ccc2c(c1)OCCO2)=N\NC(=O)c1ccccn1	-19	2.3	2	-0.1%	-27	-14	-5%
CN(C)CCN(C(=O)c1ccc2ccccc2c1)c1nc2c(F)cc(F)cc2s1	-19	0.9	/	2.3%	16	-5	-3%
CCOC(=O)C1=C(COc2ccc(C)cc2)NC(=O)NC1c1cc(C)ccc1C (stereo unspecified)	4	-2.3	-2	3.5%	-3	1	12%
O=[N+]([O-])c1cc(S(=O)(=O)Nc2cccc(Cl)c2)ccc1N/N=C/c1ccc(N2CCOCC2)cc1	-15	-5.4	/	0.4%	-16	23	5%
Cc1onc(-c2ccccc2)c1CNS(=O)(=O)c1ccccc1[N+](=O)[O-]	6	4.1	2	-2.7%	-16	27	5%
COc1ccc(CSc2nc(C)cc(C)c2S(C)(=O)=O)cc1	1	-4.3	12	3.0%	7	-10	0%
CCOC(CCn1ccc(O)c(Cc2ccc(Cl)cc2)c1=O)OCC	-8	-1.8	/	1.0%	6	2	8%
CN1C(=O)C2ON(c3ccccc3)C(c3cccs3)C2C1=O (stereo unspecified)	-7	-1.8	-1	-0.8%	1	14	17%
CCN(CC)S(=O)(=O)c1ccc(OCC2CCCCO2)c([N+](=O)[O-])c1 (stereo unspecified)	-4	-3.2	15	3.8%	2	-7	17%
COc1ccc(-c2nc(CS(=O)(=O)CC(=O)NCc3cccc(OC)c3OC)c(C)o2)cc1	0	-1.6	0	2.1%	-2	-7	11%

Continued (five carried over from the part before).
SMILES	D2 potentiator	D2 agonist	CtBP-E1A inh	PINK1 expr mod	Six1-Eya2 inh	TRPV1 PAM	Sfp PPTase inh
COc1ccc(CSc2nc(C)cc(C)c2S(C)(=O)=O)cc1	1	-4.3	12	3.0%	7	-10	0%
CCOC(CCn1ccc(O)c(Cc2ccc(Cl)cc2)c1=O)OCC	-8	-1.8	/	1.0%	6	2	8%
CN1C(=O)C2ON(c3ccccc3)C(c3cccs3)C2C1=O (stereo unspecified)	-7	-1.8	-1	-0.8%	1	14	17%
CCN(CC)S(=O)(=O)c1ccc(OCC2CCCCO2)c([N+](=O)[O-])c1 (stereo unspecified)	-4	-3.2	15	3.8%	2	-7	17%
COc1ccc(-c2nc(CS(=O)(=O)CC(=O)NCc3cccc(OC)c3OC)c(C)o2)cc1	0	-1.6	0	2.1%	-2	-7	11%
COC(=O)C(C(C)C)N(Cc1cc(OC)cc(OC)c1)S(=O)(=O)CCl (stereo unspecified)	/	-1.4	11	0.1%	7	/	/
O=C1C(Cc2ccc(F)cc2)SC(=Nc2ccccc2)N1c1ccccc1 (stereo unspecified)	-13	-2.9	-1	2.4%	0	?	-1%
CCS(=O)(=O)c1ccc(O)c(NC(=O)CCCC(=O)O)c1	1	-2.9	9	0.5%	7	-39	-11%
Cc1ccc(C)c(Nc2ncnc(N)c2[N+](=O)[O-])c1	-1	0.7	2	1.3%	10	18	-6%
COc1ccc(-c2cc(C(F)(F)F)n3nc(C(=O)NCCCn4ccnc4)cc3n2)cc1	-5	0.9	-27	3.0%	?	15	?
C/C(=C\C(=O)c1ccc(C)o1)Nc1ccc(C(=O)O)cc1C	14	-1.0	1	-1.5%	0	?	-4%
O=C(NC1CCCCC1)c1cc([N+](=O)[O-])ccc1N1CCCC1	-11	-3.0	5	-0.7%	-2	-16	15%
CCOc1cc(/C=C(\C#N)c2nc(-c3cccs3)c(NC(C)=O)s2)ccc1O	-10	-5.4	-17	3.3%	-11	-4	3%
O=C1CCc2cc(NS(=O)(=O)c3ccc(Br)cc3)cc3c2N1CC3	2	-0.4	4	3.1%	-1	-7	/
COc1ccc2c(c1)OC[C@H]1[C@H]2N2C(=O)c3ccccc3NC(=O)[C@@]2(C)[C@H]1c1ccccc1	-10	-1.0	-8	8.7%	-16	/	/
COc1ccc(NC(=O)C2Cc3c(-c4ccccc4)ccnc3O2)cc1OC (stereo unspecified)	-9	3.2	-23	2.9%	-6	/	/
